BJeLR viability = kills HRASV12-expressing BJeLR cells; inhibition, % (concentration not given with the values); 300,000 compounds, 0.17% hits; BJeLR (HRASV12) viability, CellTiter-Glo ATP luminescence, 48 h; reference of the scale not given here;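 active = replicate mean above 50%; inconclusive = above 50% but judged a plate artefact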;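 note: 50 nL library stock added to about 25 µL; numbers are from one replicate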
Sa RN4220 lethal = S. aureus RN4220 growth inhibition; AID 1259311; inhibition, % (test concentration not listed); OD600, 16 h; 330,000 compounds, 0.33% hits;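 active = z-score of -3 or lower and OD600 up to 0.18 on both plates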;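 note: plate controls were untreated cells for no effect and reference antibiotic for full effect; stock transfer was 100 nL into about 80 µL; one replicate is shown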
PrP 5UTR inh = inhibition of PrP 5' UTR reporter expression; cell-based PrP 5' UTR mRNA reporter, plate reader; inhibition, % (concentration not given with the values); 340,000 compounds, 0.35% hits; AID 488862;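 active = every replicate at 50% or more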;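 note: 0 = median of the neutral control wells; tested in H4 reporter cells; numbers are from one replicate; inactives centre near -14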
Mtb hypoxia inh = inhibitors of hypoxia-regulated fluorescent reporter in Mycobacterium tuberculosis; AID 1159583; fluorescence inhibition, % (no concentration beside the values); M. tuberculosis hypoxia-regulated fluorescent reporter, fluorescence; 300,000 compounds, 0.1% hits;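 active = 35 to 45% if threefold the growth effect, above 45% if 1.5-fold the growth effect; inactive = the rest, general growth blockers included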;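 note: wells of about 50 µL received 100 nL stock; 0% = vehicle wells and 100% = reference inhibitor wells; whole bacteria with a GFP reporter of the hypoxia response; strong numbers were not always called active; many hits fall short of the cut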
Bead autofluor = compound fluorescence in toxin protease inhibitor counterscreen; compound autofluorescence counterscreen, microsphere flow cytometry; active compounds read high; fluorescence intensity (test concentration not listed); 360,000 compounds, 3.1% hits; AID 624483;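 active = at least 3 SD above the mean of all compounds, about 16000 in these data; inconclusive = too few beads counted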;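 note: 100 nL of 1 mM stock went into each well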
Sa ugtP lethal = kills S. aureus RN4220 lacking UgtP | 330,000 compounds, 0.54% hits | S. aureus RN4220 ugtP deletion, OD600 growth, 16 h; some inactives read as strong as hits | growth inhibition, % (test concentration not listed);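 active = z-score under -3 and OD600 up to 0.15 on both plates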;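 note: plate controls were untreated wells for no effect and antibiotic for full effect; wells of about 80 µL received 100 nL stock; the first replicate is given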
Mtb hypoxia inh growth = also measured in Mtb hypoxia inh; calls as there; growth inhibition, %; measured here: M. tuberculosis growth (absorbance);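 0% = vehicle and 100% = reference antibiotic; read after six days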
* hit, by the source's call; ? = inconclusive; nt = no result given.

SMILES	BJeLR viability	Sa RN4220 lethal	PrP 5UTR inh	Mtb hypoxia inh	Mtb hypoxia inh growth	Bead autofluor	Sa ugtP lethal
O=Cc1ccc(OCC(=O)NCC2CCCO2)cc1 (configuration not stated)	2	4.2	-10	4	10	5993	1
CCN(CC)C(=O)C(=O)NN=Cc1ccc(C(=O)O)cc1	nt	6.0	nt	7	3	nt	8
COc1ccc2[nH]c3c(c2c1)CCN1C(=O)N([C@@H](C)C(=O)NC2CCN(Cc4ccccc4)CC2)C(=O)[C@]31C	-2	-0.4	-25	nt	nt	6520	-9
O=C(/C=C/c1ccco1)NCC1CCCO1 (configuration not stated)	-4	-16	-10	0	8	2965	-12
O=c1[nH]c2cc3c(cc2cc1C(c1nnnn1Cc1ccccc1)N1CCN2CCCC2C1)OCCO3 (configuration not stated)	4	5.6	-15	1	5	9350	5
O=C(NC1CCCc2ccccc21)C1CCN(S(=O)(=O)c2ccccc2)CC1 (configuration not stated)	3	1.5	-2	8	5	10345	-2
Nc1nc(-c2cccc(Br)c2)cs1	2	8.0	nt	3	7	11125	-3
CCCCNC(=O)c1onc(CSc2ccc(F)cc2)c1C(=O)NCCCC	1	0.2	-16	17	7	3137	-1
Cc1nccc(-c2sc(-c3cccs3)nc2C)n1	7	8.8	-11	15	1	3847	-7
c1cnc2ccc(C(c3nnnn3C3CCCCC3)N3CCN4CCCC4C3)cc2c1 (configuration not stated)	4	2.0	-13	nt	nt	nt	4
CC(=O)c1cccc(OC(=O)C2=CC=CN3CCS(=O)(=O)N=C23)c1	nt	3.6	-7	6	-1	3722	4
COc1ccc(OCC(=O)NN=Cc2ccco2)cc1	nt	2.7	nt	13	10	nt	0
O=c1cc(CN2CCN(Cc3ccccc3)CC2)c2ccc(O)c(O)c2o1	0	2.0	11	2	-4	3662	1
O=C(O)COc1ccccc1C=NNC(=O)CN1CCN(S(=O)(=O)c2ccc(Br)cc2)CC1	nt	4.6	nt	9	18	nt	14
CS(=O)(=O)c1nc(S(=O)(=O)c2ccc(Cl)cc2)c(N2CCC(O)CC2)s1	-1	1.1	-2	-2	-5	5598	7
O=C(Cc1ccc(-c2ccccc2)cc1)OCC(=O)N1CCCC1=O	-7	2.7	-1	6	-3	3281	2
C=CCn1c(COc2ccc(Cl)cc2)nnc1SCC(=O)Nc1ccc(S(N)(=O)=O)cc1	-8	-1.5	-10	-5	-5	9890	2
O=C(O)CCCC(=O)N1CCN(c2nc(-c3ccccc3)c3ccccc3n2)CC1	-3	8.3	-26	8	8	6014	14
CCOc1ccc(N2C(=O)C3C(c4ccccc4)=NN(c4ccccc4)C3C2=O)cc1 (configuration not stated)	4	2.4	-20	12	11	11172	3
CCC(CC)NC(=O)COc1ccc(OC)cc1C=O	6	-2.9	0	2	14	4214	1
CC(CC(=O)NCCCN1CCOCC1)=NNC(=O)COc1ccc(C)cc1	nt	4.8	nt	17	6	nt	12
O=C1C(C=NC2CC2)=C(O)c2ccccc21	-1	-17	-17	0	-2	2669	-7
CN(C(=O)c1ccccc1C(=O)OCC(=O)NCc1cccs1)C1CCCCC1	-1	-4.7	55*	-7	6	3228	-14
CC(C)Cn1c(SCC(=O)NCc2ccc(Cl)cc2)nnc1-c1cccc(S(=O)(=O)N2CCOCC2)c1	15	-1.3	-12	-2	6	11136	-6
CCN(CC)c1ccc(C(NC(C)=O)NC(C)=O)cc1	8	4.0	-18	nt	nt	2521	6

Other results:
SMILES	BJeLR viability	Sa RN4220 lethal	PrP 5UTR inh	Mtb hypoxia inh	Mtb hypoxia inh growth	Bead autofluor	Sa ugtP lethal
CCCCCn1c(CN(C)Cc2ccccc2)nc2c1c(=O)n(C)c(=O)n2C	-4	-2.2	-14	6	15	23164*	0
CCCCC(=O)N/N=C/c1c(O)n(CCc2ccc(OC)c(OC)c2)c(=O)[nH]c1=O	-4	5.8	-23	1	0	2578	4
CCc1ccc2c(COn3nnc4ccc(S(=O)(=O)N(C)C)cc43)cc(=O)oc2c1	-6	1.4	-11	nt	nt	5720	2
CCOc1ccc(/C=N/NC(=O)c2nnn(-c3nonc3N)c2CN2CCC(C)CC2)cc1	-6	nt	-39	nt	nt	4482	nt
Cc1oc2ccc(OC(=O)COc3c(F)c(F)c(F)c(F)c3F)cc2c1C(=O)OC(C)C	nt	-0.5	-19	0	-3	2247	1
COc1cc2c(cc1NC(=O)COC(=O)c1ccc(C(C)(C)C)cc1)oc1ccccc12	-6	7.2	-14	16	3	2323	1
CC(C)c1cc(C(=O)O)c2ccccc2n1	6	1.5	-14	12	12	5016	7
CCOC(=O)C1=C(C)Nc2ncnn2C1c1c[nH]c2ccccc12 (configuration not stated)	-7	6.8	-86	3	8	7377	0
CCOC(=O)N1CCC(NC2CCCCCCC2)CC1	-7	1.3	-12	-6	7	10427	-1
CCOC(=O)C1C(c2ccc(O)cc2)NC(=O)NC1(O)C(F)(F)F (configuration not stated)	2	2.1	-18	11	6	3870	14
Cc1ccc(C)c(OCCC(=O)OC(C)C(=O)Nc2c(C)n(C)n(-c3ccccc3)c2=O)c1 (configuration not stated)	-11	2.8	-7	2	4	5213	2
O=c1ccc(-c2ccc(S(=O)(=O)Nc3ccc(F)cc3)s2)n[nH]1	-3	4.0	-6	15	7	5278	3
CN(C(=O)CSc1nnc(COc2ccccc2F)n1N)C1CCCCC1	-10	-3.9	-5	-12	5	5573	-3
O=C(O)C1=C[C@@H](c2ccccc2)C[C@@H](OCc2ccc(CO)cc2)O1	15	nt	-9	nt	nt	3740	nt
CCOC(=O)c1[nH]c2ccc(OC)cc2c1NC(=O)CCN1CCc2ccccc2C1	1	0.4	-19	nt	nt	4807	-10
Cc1ccc(NC(=O)CC2SCCNC2=O)cc1Cl (configuration not stated)	-1	3.5	-47	6	-3	23686*	0
CCCCCC(=O)Nc1ccc(-c2nnc3n2CCCCC3)cc1	-4	-0.4	-18	6	7	5772	1
CCOC(=O)Cc1cc(=O)n2[nH]cc(-c3ccc(Cl)cc3)c2n1	-2	35	-30	7	-3	4502	17
COc1ccc(OC)c(-c2csc(N(Cc3ccco3)C(=O)c3cccs3)n2)c1	1	1.4	1	7	-3	5931	-6
COc1ccc(CN(Cc2cccn2C)S(=O)(=O)c2cccc(C(F)(F)F)c2)cc1	6	2.1	-40	2	-6	nt	17
Cc1cc(NC(=O)CSCC(=O)Nc2ccccc2OC(F)F)no1	-7	2.8	-5	13	19	4897	10
CC(C)CNC(=O)CSc1nnc(CN2CCCCCC2=O)n1-c1ccccn1	-7	1.4	-3	8	6	6096	1
Cn1c(CNC(=O)CNC(=O)Cc2ccc(Cl)cc2)cc(=O)n(C)c1=O	-1	3.5	-8	2	-1	5816	6
O=C(Nc1ccccc1)Nc1ccccc1C(=O)NCc1ccccc1	-3	1.9	0	25	-27	nt	-7
CCOC(=O)C1CCN(C(=O)c2ccc(Cl)c(NC3=NC4CS(=O)(=O)CC4S3)c2)CC1 (configuration not stated)	-7	6.2	-13	2	1	5889	5

Five entries already listed, arranged by heavy-atom count, rising:
SMILES	BJeLR viability	Sa RN4220 lethal	PrP 5UTR inh	Mtb hypoxia inh	Mtb hypoxia inh growth	Bead autofluor	Sa ugtP lethal
Cc1ccc(NC(=O)CC2SCCNC2=O)cc1Cl (configuration not stated)	-1	3.5	-47	6	-3	23686*	0
O=c1ccc(-c2ccc(S(=O)(=O)Nc3ccc(F)cc3)s2)n[nH]1	-3	4.0	-6	15	7	5278	3
CCOC(=O)C1=C(C)Nc2ncnn2C1c1c[nH]c2ccccc12 (configuration not stated)	-7	6.8	-86	3	8	7377	0
Cc1cc(NC(=O)CSCC(=O)Nc2ccccc2OC(F)F)no1	-7	2.8	-5	13	19	4897	10
COc1ccc(OC)c(-c2csc(N(Cc3ccco3)C(=O)c3cccs3)n2)c1	1	1.4	1	7	-3	5931	-6

Following part
SMILES	BJeLR viability	Sa RN4220 lethal	PrP 5UTR inh	Mtb hypoxia inh	Mtb hypoxia inh growth	Bead autofluor	Sa ugtP lethal
Cn1c(SCC(=O)NCc2cccs2)nnc1-c1cccs1	-1	7.0	-18	-2	-2	3324	5
N/C(=N\OC(=O)c1ccc(=O)n(Cc2ccccc2)c1)c1ccccn1	-11	-0.3	-15	6	9	4401	-1
CCOC(=O)C1(CC2CC2)CCN(Cc2ccc(O)c(Cl)c2)CC1	5	6.1	nt	9	3	nt	9
O=C(CSc1ncnc2nc[nH]c12)NCCc1ccccc1	3	3.3	-6	10	10	3124	3
Cc1ccc(CNC(=O)CCNS(=O)(=O)c2ccc3c(c2)c(=O)n(C)c(=O)n3C)cc1	-5	2.3	-12	5	6	10710	1
O=C(CCN1C(=O)S/C(=C\c2ccc(Cl)cc2)C1=O)Nc1ccc(C(=O)O)cc1	-7	-1.8	-3	0	-3	5768	7
O=C(CSc1n[nH]c(-c2ccccc2O)n1)NC1CCCCC1	-1	3.7	-16	-1	-7	2867	7
COc1ccc(C2c3ccc4ccccc4c3Oc3ncn(Cc4ccco4)c(=N)c32)cc1OC (configuration not stated)	0	-9.3	-19	5	2	5573	-21
CN(C)C(=O)CSc1nnc([C@@H](N)Cc2ccccc2)o1	1	7.3	-30	9	9	22809*	0
Cc1cc(C(=O)NC(C)c2ccncc2)no1 (configuration not stated)	2	2.4	-21	-4	-8	8143	3
COc1ccccc1C(=O)NC(=O)Cn1nc(C)c([N+](=O)[O-])c1C	10	1.3	-10	-3	7	?	2
CCCn1ncc(C(=O)O)c1C	22	-2.0	-26	nt	nt	2380	6
CCOc1cc(/C=N/NC(=O)C(=O)NC)cc(Br)c1O	16	nt	-18	nt	nt	8109	nt
Cc1nn(-c2ccccc2)c(C)c1NC(=O)COC(=O)[C@@H](NC(=O)c1ccccc1)C(C)C	6	1.9	-7	2	-6	5404	1
N#CCCn1cc(/C=C2\NC(=S)N(c3ccccc3)C2=O)c(-c2ccc(F)cc2)n1	7	4.5	-11	1	2	2032	17
O=C(COc1ccccc1[N+](=O)[O-])NCCCN1CCCC1=O	nt	1.6	-20	4	2	3091	7
O=S(=O)(Nc1nccs1)c1ccc(NCc2cc(Br)cc(Br)c2O)cc1	-8	10	-19	9	18	3591	13
CC(C)N(C(=O)COC(=O)c1ccc(Cl)nc1)C(C)C	4	2.3	-32	6	7	3284	0
COc1ccc(N(CC(=O)NC2CCCC2)C(=O)CCC(=O)Nc2cc(C)on2)c(OC)c1	9	2.4	-2	nt	nt	5190	-1
Cc1ccn2c(=O)c(C(=O)NCCCN3CCCC3=O)c(O)nc2c1	14	4.3	-9	7	0	5965	11
COC(=O)c1cc(OC)c(OC)cc1NC(=O)CCC1CCCC1	-9	1.4	-8	8	5	2650	16
CCn1c(=O)[nH]c2ccccc2c1=O	1	0.4	-29	12	-3	6707	6
COc1cccc(CCc2nnc(CCC(=O)N3CCCC3c3nccs3)o2)c1 (configuration not stated)	0	5.6	-6	-1	-7	4041	4
CCOC(=O)c1[nH]c2ccccc2c1N=C(C)N(CC)CC	9	4.1	-22	11	5	4429	0
Cc1cccc2c1N(CCOc1ccccc1)C(=O)C2=O	-7	16	-15	17	12	3959	10

Next part.
SMILES	BJeLR viability	Sa RN4220 lethal	PrP 5UTR inh	Mtb hypoxia inh	Mtb hypoxia inh growth	Bead autofluor	Sa ugtP lethal
Cc1cc(C)c(NC(=O)c2ccc3c(c2)NC(=O)C(C)S3)c(C)c1 (configuration not stated)	nt	7.6	nt	12	4	nt	6
O=C(CCc1nc2ccccc2[nH]1)N1CCN(C(=O)c2ccco2)CC1	-4	0.8	11	nt	nt	6050	1
COc1ccc(/C=N/Nc2ccc(C(=O)O)cc2)c(OC)c1OC	-10	nt	-41	nt	nt	3953	nt
O=c1[nH]c(=O)n(Cc2ccco2)c2c1C(C(F)(F)F)(C(F)(F)F)N=C(c1ccc(F)cc1)N2	19	2.3	-10	4	1	?	0
O=C(NCc1ccccc1Cl)c1ccc2c(c1)SC1=NS(=O)(=O)CCN12	-5	1.6	-12	7	9	4572	6
O=C(NCCCN1CCOCC1)c1ccc(Sc2ccc(Br)cc2)c([N+](=O)[O-])c1	3	1.2	2	3	2	2635	16
Cc1c(C(C)NC(=O)c2cc(COc3cccc4cnccc34)on2)cnn1C (configuration not stated)	7	1.6	-16	-1	5	nt	2
Cc1onc(-c2ccccc2Cl)c1-c1nc(-c2ccncc2)no1	0	2.3	-7	3	-7	2989	3
O=C(NCc1cccnc1)c1ccc(Cn2c(=S)[nH]c3ccc(Br)cc3c2=O)cc1	-3	-2.9	-13	10	14	3955	3
CNc1ccccc1C(C)(C)c1cc(C)[nH]n1	-3	9.6	-17	-3	-14	2583	16
